Cruzain inh noDet: qHTS Assay for Promiscuous and Specific Inhibitors of Cruzain (without detergent); Potency, µM, inactives show max response, negative = inhibition, actives largely listed as inhibitors; purified cruzain, Z-FR-AMC fluorescence, no detergent; hit rate 2.3% among 200,000; AID 1476, 2009; active = well fitted curve in the direction sought with a large enough effect; inconclusive = small, poorly fitted or top-dose-only effect, or another doubt; inactive = no such curve, though single readings can be large; an effect the other way counts as inactive or inconclusive;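 also: plate controls were enzyme without inhibitor for no effect and buffer without enzyme for full effect; nearly all actives have a fitted effect of over 40% in size; top concentration of the series not given in the record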
Target sequence (P25779 123-467 limits assumed): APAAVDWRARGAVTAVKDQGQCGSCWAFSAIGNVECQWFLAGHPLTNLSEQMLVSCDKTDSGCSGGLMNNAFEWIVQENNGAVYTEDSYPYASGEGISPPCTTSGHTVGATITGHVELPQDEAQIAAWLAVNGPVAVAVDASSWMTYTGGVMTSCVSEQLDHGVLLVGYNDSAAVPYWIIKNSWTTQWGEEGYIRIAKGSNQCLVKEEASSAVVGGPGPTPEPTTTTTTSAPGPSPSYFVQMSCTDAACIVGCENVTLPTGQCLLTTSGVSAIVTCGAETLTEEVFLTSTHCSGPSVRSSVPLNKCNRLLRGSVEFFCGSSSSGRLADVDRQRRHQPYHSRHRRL
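Detergent-free condition (0.00005% Triton X-100) in acetate buffer pH 5.5 with DTT. 1.5 nM enzyme and compound were pre-mixed 15 min, then 2 uM Z-FR-AMC substrate added; reaction progress from fluorescence change between first and third reads (60 s).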
SARS PLP yeast: qHTS of Yeast-based Assay for SARS-CoV PLP. S. cerevisiae expressing SARS-CoV PLpro, growth rescue; control for the full effect not named in the record. Potency, µM (doses to about 32.9 µM), for the others: top-dose activity, positive = growth rescue. hit rate 0.19% among 330,000. AID 485353, 2010; also: 0% is about no effect; nearly all actives have a fitted effect of over 55% in size; growth read by luminescence after 48 h
2A StopGo: High Throughput Screening for Foot and Mouth Disease Virus Antivirals; human cells with a luciferase reporter of 2A StopGo recoding; control for the full effect not named in the record; Potency, µM (top dose mostly 57.9 µM), for the others: at the highest dose signal change, negative = less light; hit rate 1.2% among 410,000; active = well fitted falling curve with a large enough effect; inconclusive = small, poorly fitted or top-dose-only effect; inactive = no such curve, though single readings can be large or run the other way; tested in HEK293T cells; also: % is scaled to controls: 0 for no effect and ±100 for the full control effect; nearly all actives have a fitted effect of over 45% in size; luciferase light after 4 h
LASV entry inh: qHTS for Inhibitors of binding or entry into cells for Lassa Virus; Lassa virus pseudotype entry inhibition, cell reporter; control for the full effect not named in the record; Potency, µM (highest dose often 37.9 µM), for the others: top-dose activity change, negative = inhibition, hits mostly inhibitors; hit rate 1.2% among 300,000; AID 540256, 2011; active means well fitted inhibition curve with a large enough effect; inconclusive means small, poorly fitted or top-dose-only effect, or effect the other way; inactive means flat fitted curve, though single readings scatter; tested in HEK293 cells; also: % is scaled to controls: 0 for no effect and ±100 for the full control effect; nearly all actives have a fitted effect of over 50% in size; luciferase read-out
NS1 function inh: qHTS Assay for Inhibitors of Influenza NS1 Protein Function. S. cerevisiae slowed by influenza A NS1, growth recovery by OD600. AID 2326, 2010. Potency, µM (highest dose often 46.1 µM), for the others: top-dose activity, positive = more growth. hit rate 0.4% among 270,000; also: actives are rising curves; nearly all actives have a fitted effect of over 50% in size
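In this qHTS, NS1 from influenza A is expressed in budding yeast, where it slows growth. Cells are switched from glucose to 2% galactose medium (pH 6.0, -URA), treated with compound, and growth recovery is read at OD600.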
Cruzain inh Det: qHTS Assay for Promiscuous and Specific Inhibitors of Cruzain (with detergent); Potency, µM, inactives show max response, negative = inhibition, usual class: inhibitors; purified cruzain, Z-FR-AMC fluorescence, 0.01% Triton; hit rate 0.43% among 200,000; Cruzipain (Trypanosoma cruzi), P25779; AID 1478, 2009; active = well fitted curve in the direction sought with a large enough effect; inconclusive = small, poorly fitted or top-dose-only effect, or another doubt; inactive = no such curve, though single readings can be large; an effect the other way counts as inactive or inconclusive;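 also: plate controls were neutral wells for no effect and buffer without enzyme for full effect; nearly all actives have a fitted effect of over 40% in size; top concentration of the series not given in the record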
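Enzyme 1.5 nM, Z-FR-AMC 2 uM, NaOAc 100 mM pH 5.5, DTT 5 mM, Triton X-100 0.01%; 15 min RT compound preincubation; kinetic ex360/em450, 60 s delta.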
RE007 growth inh: qHTS Assay for Inhibitors of the HIV-1 protein Vpr. S. pombe RE007 Vpr strain, BacTiter-Glo ATP luminescence, 24 h; control for the full effect not named in the record. Potency, µM (highest dose often 92.2 µM), for inactives: at the highest dose activity change, negative = less growth. hit rate 0.21% among 360,000. AID 651644, 2012; active = well fitted falling curve with a large enough effect; inconclusive = small, poorly fitted or top-dose-only effect; inactive = no such curve, though single readings can be large or run the other way;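 also: % is scaled to controls: 0 for no effect and ±100 for the full control effect; nearly all actives have a fitted effect of over 50% in size; the assay follows cell death caused by Vpr and the record does not say whether a fall means rescue or toxicity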
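Fission yeast RE007 carrying one integrated HIV-1 vpr copy, seeded at OD 0.01 in PMG+AL medium with 23 nL pinned compound. Grown 24 h at 30 degrees; viability read by BacTiter-Glo luminescence after 5 min.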
Marburg entry inh: qHTS for inhibitors of binding or entry into cells for Marburg Virus | AID 540276, 2011 | Marburg virus pseudotyped entry inhibition, cell reporter; control for the full effect not named in the record; about a third of the inactives were read at about 46 µM | hit rate 1.8% among 300,000 | Potency, µM (doses to about 37.8 µM), for inactives: at the highest dose activity change, negative = inhibition, usual class: inhibitors; active = well fitted inhibition curve with a large enough effect; inconclusive = small, poorly fitted or top-dose-only effect, or effect the other way; inactive = flat fitted curve, though single readings scatter; tested in HEK293 cells; about a fifth of its hits are not listed in these tables; also: % is scaled to controls: 0 for no effect and ±100 for the full control effect; luciferase read-out
The depositor's hits bear a star; ? = inconclusive; · = not tested or not shown; [ ] = dose if it differs, or a comment. Unless noted, calls follow the shape of the dose curve; as a rule, active means well fitted rising curve with a large enough effect; inconclusive means small, poorly fitted or top-dose-only effect; inactive means no such curve, though single readings can be large or run the other way. Potency is read from the fitted curve at half-maximal effect. Rows were taken by chance; 4.8% or so of the library scored in one or more.

nr	Structure	Cruzain inh noDet	SARS PLP yeast	2A StopGo	LASV entry inh
1	CCc1ccccc1Nc1nc2ccccc2n1C(C)C	·	0%	-2%	4%
2	c1ccc(-c2n[nH]c(-c3ccccn3)n2)cc1	-2%	-10%	18%	?
3	COc1ccc(CNC(=O)OCCN2CCN(S(=O)(=O)c3ccc(C)cc3)CCC2=O)cc1	?	-10%	0%	4%
4	CC(=O)Oc1ccc2ccc(=O)oc2c1	·	0%	-19%	·
5	O=S(=O)(c1ccc(F)c(F)c1F)N1CCN(c2ncnc3sccc23)CC1	·	4%	?	?
6	CCOC(=O)C1=C(CN2CCCCCC2)NC(=O)NC1c1ccc2c(c1)OCO2 (stereo not given)	·	0%	-23%	-18%
7	O=C(N/N=C/C(Br)=C/c1ccccc1)c1cccs1	·	-4%	22%	?
8	O=C(O)C1=C[C@H](c2ccc(F)cc2)C[C@H](OCCCCO)O1	·	-2%	-1%	·
9	CC(C)(C)c1ccc(C(=O)Nc2ccc(NC(=O)c3ccco3)cc2)cc1	0%	-2%	·	-1%
10	Cc1nc(C)c(C(=O)NNS(=O)(=O)c2ccc([N+](=O)[O-])cc2)s1	4%	-3%	-8%	2%
11	O=C(NCc1ccc(Cl)cc1)c1ccc(CS(=O)Cc2cccc(Cl)c2)o1 (stereo not given)	·	5%	-3%	·
12	COCC1CCN(C(=O)C2CCN(c3nc(-c4ccccc4)nc4c3CCC4)CC2)C1 (stereo not given)	·	-1%	0%	-1%

nr	NS1 function inh	Cruzain inh Det	RE007 growth inh	Marburg entry inh
1	-5%	·	9%	4%[46.1 µM]
2	-56%	-1.6%	-27%	?
3	-20%	3.6%	9%	?
4	5%	·	-3%	·
5	·	·	2%	?
6	·	·	-23%	?
7	-45%	·	-4%	?
8	-8%	·	3%	·
9	5%	3.7%	-16%	-8%
10	4%	-0.3%	4%	?
11	8%	·	-5%	·
12	-15%	·	-11%	-15%

(list continues)
nr	Structure	Cruzain inh noDet	SARS PLP yeast	2A StopGo	LASV entry inh
13	Cc1cc(C)c(NC(=O)CN2C(=O)NC(CCc3ccccc3)C2=O)c(C)c1 (stereo not given)	·	-1%	-1%	-6%
14	COc1ccc(/C=N/S(=O)(=O)CCc2ccccc2)c(OC)c1	4%	-4%	7%	-12%
15	CCNC(=O)CC1S/C(=N/N=C(\C)c2ccccc2)NC1=O (stereo not given)	·	-1%	-6%	·
16	CNC(=O)COc1ccc2oc3c(c2c1)CCCC3	·	1%	16%	?
17	CCOC(=O)N1CCC(Nc2c(Nc3cccc(CC)c3)c(=O)c2=O)CC1	2%	-1%	?	-12%
18	O=C(N/C(=C\c1ccc2c(c1)OCO2)C(=O)N1CCOCC1)c1ccccc1Br	·	-18%	5%	-3%
19	Nc1cc(SCc2ccc(Cl)cc2Cl)ncn1	·	·	-4%	-7%[46.1 µM]
20	CC(C(=O)N1CCN(C2c3ccccc3-c3ccccc32)CC1)N1C(=O)c2ccccc2C1=O (stereo not given)	13%	-34%	?	6%
21	CCC(CC)CN1C(Nc2ccccc2)=NC[C@@H]1CC(C)C	·	3%	-20%	·
22	COCCn1c(SCC(=O)N2CCCCCC2)nnc1-c1ccco1	·	4%	1%	9%[46.1 µM]
23	Cc1ccc(-c2nnn3c2nc(NCc2ccc4c(c2)OCO4)c2ccccc23)cc1	17%	·	6%	6%[46.1 µM]
24	O=C(c1ccccc1Br)N1CCN(c2ncccn2)CC1	·	-2%	-5%	16%

nr	NS1 function inh	Cruzain inh Det	RE007 growth inh	Marburg entry inh
13	3%	·	6%	?
14	4%	-8.5%	6%	17%
15	0%	·	0%	·
16	-13%	·	5%	-2%[46.1 µM]
17	-8%	-6.5%	-10%	-24%
18	9%	·	8%	25%[46.1 µM]
19	·	·	-1%	1%[46.1 µM]
20	-16%	-4.7%	11%	?
21	-13%	·	-6%	·
22	3%	·	5%	2%[46.1 µM]
23	·	-1.5%	·	1%[46.1 µM]
24	-2%	·	0%	-7%

The listing continues.
nr	Structure	Cruzain inh noDet	SARS PLP yeast	2A StopGo	LASV entry inh
25	c1ccc(CN2CCC(N=C3NN=C(c4ccc5c(c4)OCCO5)CS3)CC2)cc1	·	1%	-5%	0%
26	COc1cccc(/C=N/Nc2cc(-n3nc(C)cc3-c3ccccc3)ncn2)c1O	4%	?	?	?
27	Cc1cc(C)cc(NC(=O)CN(C)S(=O)(=O)c2cccc3nsnc23)c1	-5%	-2%	-24%	?
28	COc1ccc(C)cc1Nc1n[n+](-c2ccccc2)c(-c2ccc(NC(C)=O)cc2)s1	·	2%	-3%	·
29	CCC(=O)NC(=S)NNC(=O)c1ccc([N+](=O)[O-])cc1	0%	2%	5%	0%
30	CCOC(=O)c1ccccc1NC(=O)CCc1c(C)nc2ncnn2c1C	8%	·	-15%	28%[46.1 µM]
31	COC(=O)c1cc(CNC(=O)Cc2ccsc2)ccc1OC	·	1%	24%	?
32	CCn1c(C2CC(=O)N(c3ccc(C)c(C)c3)C2)nc2ccccc21 (stereo not given)	-7%	-2%	-18%	·
33	O=C(NC1CC1)c1ccc(-n2cccc2)cc1	·	2%	46%[activator]	-16%
34	O=C(c1ccc(Cl)cc1)C1CCN(Cc2ccccc2)CC1	·	1%	-24%	·
35	CCc1nc(NCCCN2CCOCC2)c2oc3ccccc3c2n1	3%	-2%	-12%	-1%
36	CCOc1ccccc1NC(=O)CSC1=Nc2ccccc2C2=NC(CC(=O)NCc3ccc4c(c3)OCO4)C(=O)N12 (stereo not given)	7%	·	-18%	?

nr	NS1 function inh	Cruzain inh Det	RE007 growth inh	Marburg entry inh
25	10%	·	-1%	?
26	0%	-11%	1%	?
27	-2%	-4.3%	-2%	-18%
28	16%	·	2%	·
29	9%	4.2%	-18%	13%
30	·	1.4%	·	8%[46.1 µM]
31	3%	·	22%	-15%[46.1 µM]
32	-65%	-10%	-1%	·
33	·	·	-11%	?
34	-5%	·	-4%	·
35	-4%	-4.7%	-2%	6%
36	·	0.5%	·	?

Remaining list, next part:
nr	Structure	Cruzain inh noDet	SARS PLP yeast	2A StopGo	LASV entry inh
37	NC(=O)c1cc[n+](CC2=C(C(=O)O)N3C(=O)[C@@H](NC(=O)C(c4ccccc4)S(=O)(=O)[O-])[C@H]3SC2)cc1 (stereo not given in full)	13%	2%	-17%	-5%
38	CC12CN(Cc3ccccc3)CC(C)(CN(Cc3ccccc3)C1)C2=NO	6%	10%	-9%	3%
39	O=C(Cn1cnc([N+](=O)[O-])n1)N/N=C/c1ccc(O)cc1O	·	21%	-21%	?
40	CC(=O)N1CCN(C(=O)c2ccc(Cl)c(NC(=O)c3cccs3)c2)CC1	·	2%	-12%	6%
41	CCOC(=O)N1CCN(C(=O)COc2ccccc2[N+](=O)[O-])CC1	·	4%	-7%	6%
42	CCCCCOc1ccc(C(=O)NCC2(c3ccccc3)CCOCC2)cc1	?	-34%	-16%	-24%[14.3 µM]
43	Cc1ccc(NS(=O)(=O)c2ccc(C(=O)NCCN3CCOCC3)cc2)cc1	·	3%	-5%	-24%
44	CCN(CC(=O)Nc1ccccc1C(F)(F)F)C(=O)CCOc1ccccc1C	·	1%	3%	-3%
45	COc1ccc2nc3sc(C(=O)N4CCN(c5ccc(F)cc5)CC4)cc3cc2c1	-1%	·	-12%	9%[46.1 µM]
46	CC(C)(C)NC(=O)c1ccnc(C(C)(C)C)c1	-3%	-3%	-10%	5%
47	O=C(NCCS(=O)c1ccc(Cl)cc1)c1cccc(Cl)c1 (stereo not given)	·	1%	-8%	26%[46.1 µM]
48	COc1ccccc1CNS(=O)(=O)CC12CCC(CC1=O)C2(C)C (stereo not given)	·	7%	20%	24%
49	CCOc1ccc(Nc2cc(Nc3ccccc3OCC)nc(C=C(C#N)C#N)n2)cc1	·	0%	-2%	-1%
50	CCOC(=O)C(NC(=O)NCc1ccccc1)(OCC)C(F)(F)F (stereo not given)	3%	-8%	-13%	?
51	N#Cc1ccc2ccn(CC(=O)NCc3ccco3)c2c1	-9%	12%	-2%	7%

nr	NS1 function inh	Cruzain inh Det	RE007 growth inh	Marburg entry inh
37	1%	0.8%	-2%[18.4 µM]	1%
38	?	0.1%	-24%	-3%
39	·	·	-2%	?
40	·	·	-6%	16%
41	·	·	2%	5%
42	-41%	-5.4%	8%	-20%
43	·	·	-9%	13%
44	·	·	6%	12%
45	·	-2.0%	·	20%[46.1 µM]
46	0%	5.3%	-2%	5%
47	·	·	9%	?
48	11%	·	-4%	-11%[46.1 µM]
49	1%	·	-9%	15%[46.1 µM]
50	6%	-0.5%	15%	?
51	4%	8.4%	-7%	?

Given tab-delimited: part of the list above
No.	mol	Cruzain inh noDet	SARS PLP yeast	2A StopGo	LASV entry inh	NS1 function inh	Cruzain inh Det	RE007 growth inh	Marburg entry inh
46	CC(C)(C)NC(=O)c1ccnc(C(C)(C)C)c1	-3%	-3%	-10%	5%	0%	5.3%	-2%	5%
47	O=C(NCCS(=O)c1ccc(Cl)cc1)c1cccc(Cl)c1 (stereo not given)	·	1%	-8%	26%[46.1 µM]	·	·	9%	?
48	COc1ccccc1CNS(=O)(=O)CC12CCC(CC1=O)C2(C)C (stereo not given)	·	7%	20%	24%	11%	·	-4%	-11%[46.1 µM]
49	CCOc1ccc(Nc2cc(Nc3ccccc3OCC)nc(C=C(C#N)C#N)n2)cc1	·	0%	-2%	-1%	1%	·	-9%	15%[46.1 µM]

High-throughput results deposited in PubChem BioAssay by National Center for Advancing Translational Sciences (NCATS).
